Screening results: PubChem, National Center for Advancing Translational Sciences (NCATS)
Six1-Eya2 inh: Six1/Eya2 interaction inhibition; AlphaScreen GST-Six1/His-Eya2 binding, biochemical; hits give low values; control for the full effect not named in the record; activity change, % (no concentration beside the values); 0.56% of 360,000 active; AID 651725; in the data active = activity change below about -65%; inconclusive = about -30% to -65%; inactive = above about -30%; also: % is scaled to controls: 0 for no effect and ±100 for the full control effect; compound concentration not given in the record
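Homogeneous AlphaScreen proximity assay pairing GST-Six1 with His-tagged Eya2 (added as 5X mix: 250 nM and 500 nM) in 50 mM Tris pH 8.0, 300 mM NaCl, 1 mM TCEP. Glutathione donor and nickel acceptor beads; 1 h, 37 °C, dark.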
TRPV1 PAM: enhances activation of the human vanilloid receptor TRPV1. Q8NER1. potentiation, % at 8.33 µM. TRPV1-expressing cells, Fluo-8 calcium influx, capsaicin EC20 potentiation; host cell line not named in the record; control for the full effect not named in the record. AID 540277. 0.02% of 320,000 active; active means potentiation above 80%; inconclusive means 30% to 80%; inactive means below 30%; also: 0% is about no effect
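Cells expressing TRPV1 were dye-loaded with Fluo-8 and read kinetically: 10 s baseline, 3 min after compound (agonist portion), then 2 min after EC20 capsaicin (allosteric enhancer portion). Calcium-bound dye fluorescence at 480/520 nm.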
TRPML1 inh: inhibitors of human TRPML1 channel | Q9GZU1 | 0.02% of 390,000 active | activity change, negative = inhibition, % (concentration not given with the values) | TRPML1-inducible cells, Ca2+ dye fluorescence, FDSS; hits give low values; inhibition of EC80 agonist-evoked calcium signal | AID 624415; in the data active means activity change below about -50%; inconclusive means about -30% to -50%; inactive means above about -30%;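 also: stimulus is agonist 54-4 at its EC80 concentration; % is scaled to controls: 0 for no effect and ±100 for the full control effect; compound concentration not given in the record; the text of the record puts the active cut at -80%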
Target sequence (Q9GZU1 whole entry, looked up): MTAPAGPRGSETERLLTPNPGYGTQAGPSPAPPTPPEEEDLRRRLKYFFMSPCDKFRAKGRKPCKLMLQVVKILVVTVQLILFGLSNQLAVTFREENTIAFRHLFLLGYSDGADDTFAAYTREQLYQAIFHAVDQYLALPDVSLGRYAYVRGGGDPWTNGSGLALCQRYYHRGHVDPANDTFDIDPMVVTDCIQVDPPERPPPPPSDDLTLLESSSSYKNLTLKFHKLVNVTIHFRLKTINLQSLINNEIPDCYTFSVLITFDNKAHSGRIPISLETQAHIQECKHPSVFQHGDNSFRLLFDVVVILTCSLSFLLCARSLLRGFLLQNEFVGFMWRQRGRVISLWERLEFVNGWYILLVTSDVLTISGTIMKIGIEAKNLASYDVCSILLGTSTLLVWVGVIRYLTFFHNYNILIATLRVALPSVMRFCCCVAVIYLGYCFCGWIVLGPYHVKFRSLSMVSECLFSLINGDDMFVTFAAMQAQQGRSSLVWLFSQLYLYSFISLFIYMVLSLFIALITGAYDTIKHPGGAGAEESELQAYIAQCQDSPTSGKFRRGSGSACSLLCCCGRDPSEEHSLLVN
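Tet-induced TRPML1-DL cells loaded with Ca8 no-wash calcium dye were read kinetically on FDSS. Compound addition was followed by EC80 agonist 54-4 (4 uM final); inhibition was read over 110 s.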
CtBP-E1A inh: CtBP/E1A binding inhibition. AlphaScreen GST-E1A/His-CtBP binding, 1536-well; hits give low values; control for the full effect not named in the record. activity change, % (test concentration not listed). 0.49% of 340,000 active; in the data active means activity change below about -65%; inconclusive means about -30% to -65%; inactive means above about -30%; also: % is scaled to controls: 0 for no effect and ±100 for the full control effect; compound concentration not given in the record
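In 5 uL wells, 23 nL compound meets equimolar GST-E1A and His-CtBP (5X stock 125 nM each) for 2 h, 37 °C. Beads (5X, 50 ug/mL) then 1 h, 37 °C, dark.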
TRPML1 agonist: agonists of human TRPML1 channel; TRPML1-expressing cells, Ca2+ dye fluorescence, FDSS; host cell line not named in the record; reference of the full effect not given here; activation, % (concentration not given with the values); 0.12% of 410,000 active; AID 624414; in the data active = activation above about 50%; inconclusive = about 30% to 50%; inactive = below about 30%; also: 0% is about no effect; the text of the record puts the active cut at 80%
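Tetracycline-induced TRPML1-DL cells are seeded and incubated overnight before loading with a no-wash Ca2+ dye and quencher. Agonist activity is taken from the 110 s fluorescence read following compound pin-transfer on an FDSS, before EC80 54-4 challenge.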
D2 PAM: human D2 receptor positive allosteric modulation | DiscoveRx D2 beta-arrestin cells, luminescence, 90 min; 100% = 57 uM dopamine signal | potentiation, % (concentration not given with the values) | 0.23% of 360,000 active; active = potentiation of 50% or more; inconclusive = 30% to 50%; inactive = 30% or less;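 also: compound concentration not given in the record; tested on top of an EC20 dose of dopamine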
Target sequence (P14416 whole entry, looked up): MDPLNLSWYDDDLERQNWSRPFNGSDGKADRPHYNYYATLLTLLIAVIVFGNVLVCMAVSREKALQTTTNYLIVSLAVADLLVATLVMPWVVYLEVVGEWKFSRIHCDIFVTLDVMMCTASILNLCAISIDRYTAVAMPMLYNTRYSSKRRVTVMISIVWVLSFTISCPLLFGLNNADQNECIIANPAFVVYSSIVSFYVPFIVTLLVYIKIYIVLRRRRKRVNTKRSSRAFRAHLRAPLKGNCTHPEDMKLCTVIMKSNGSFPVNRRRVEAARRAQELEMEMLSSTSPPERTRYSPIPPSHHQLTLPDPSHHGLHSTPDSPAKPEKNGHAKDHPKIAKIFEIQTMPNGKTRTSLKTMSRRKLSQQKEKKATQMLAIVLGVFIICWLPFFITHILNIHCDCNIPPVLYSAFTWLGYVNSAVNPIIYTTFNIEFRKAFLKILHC
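D2 cells co-treated with compound plus 50 nM dopamine (EC20) for 90 min at 37 deg C to detect potentiation. Beta-arrestin recruitment was read as enzyme-fragment luminescence after 1 h at ambient temperature. Full response was set by 57 uM dopamine.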
Starred values were filed as active, the others as inactive; ? = inconclusive; . = not tested or not shown; & = joins results of further samples.

SMILES	Six1-Eya2 inh	TRPV1 PAM	TRPML1 inh	CtBP-E1A inh	TRPML1 agonist	D2 PAM
Cc1cc(C)c(S(=O)(=O)N(CC(=O)O)C2CCCCC2)c(C)c1	2	-6	-24	5	-0.3	5
COc1ccc(Cl)cc1C(=O)NNC(=O)c1csc(N2CCOCC2)n1	2	2	-11	5	-0.9	-14
O=S(=O)(NC1CCCCC1N1CCN(c2ccccc2F)CC1)c1ccccc1 (stereo not drawn)	1	-7	82	-2	1.3	-30
COc1ccccc1N1Cc2ccc(OC)c(OC)c2C1=O	18	18	-2	10	0.7	7
COc1ccc(CNC(=O)C2CCCN2C(=O)NCc2ccccc2)cc1 (stereo not drawn)	1	-19	-11	.	-0.6	-1
Cc1ccc(-n2c(SCC(=O)NCc3ccco3)nc3sc(C)c(C)c3c2=O)cc1	0	4	5	-7	0.4	-14
COc1ccc(N(C(=O)c2ccc(S(=O)(=O)N3CCOCC3)cc2)C2C=CS(=O)(=O)C2)cc1 (stereo not drawn)	-2	-1	15	-1	0.9	-1
Cc1cccn2c(=O)c(/C=C(\C#N)C(=O)NC3CCS(=O)(=O)C3)c(Oc3ccc(F)cc3)nc12 (stereo not drawn)	3	5	?	-1	1.1	-3
Cc1cc(Cl)cc(Cl)c1OCCOc1cccc2cccnc12	10	1	-1	11	2.3	-10
CNc1ccc2nnc(C(F)(F)C(F)(F)C(F)(F)F)n2n1	7	-16	6	4	-0.2	-1
CCCCOc1ccc(-c2nnc(-c3ccncc3)o2)cc1	11	-20	10	-3	1.2	-1
COc1ccc(Nc2ccc3ccccc3c2)cc1	-21	.	-7	-16	-0.3	-2
CCN(CCn1cccn1)Cc1cn[nH]c1-c1ccc(OC)cc1F	-3	-2	-7	8	0.0	-5
O=C(/C=C/c1ccc(F)cc1)N1CCc2ccccc2C1	0	-13	-23	3	3.2	0
COc1ccc(CN=C(C#N)C2=C(O)c3ccccc3C2=O)cc1	-7	14	32	.	-0.5	-22
O=[N+]([O-])c1cc2c(cc1Br)CCN2	-3	-6	-3	-1	-0.1	-3
COC(=O)C1=C(N)Oc2cc(C)[nH]c(=O)c2C1c1ccccc1OC (stereo not drawn)	2	2	7	0	1.9	4
Cc1ccccc1NC(=S)NC(=O)Cc1ccc(Cl)cc1	-17	-2	-9	4	19	-8
CCCCCCOc1ccc(/C(C)=N/NC2=NCCN2)cc1	2	4	.	.	.	-8
CNC(=O)C1(C)C=CC2(CCCCC2)N1C(=O)OC (stereo not drawn)	-1	.	-6	3	-0.6	-9
O=C(OCCN1C(=O)CCC1=O)c1ccc(S(=O)(=O)N2CCCCC2)cc1	-6	-2	-17	0	-0.6	8
COc1ccc([C@H]2CC(=O)C=C(c3cccc(Br)c3)C2)cc1OC	-20	.	2	-9	2.8	7
c1ccc(N2CCOCCOCCOCCOCCOCC2)cc1	7	-5	8	5	-0.7	-18
Cc1cc(Br)cn2c(Cc3cccc(F)c3)c(-c3ccc(Cl)cc3)nc12	3	.	3	11	-0.3	-5
CC1CCCCN1S(=O)(=O)c1ccc(C(=O)Nc2nnc(C3=COCCO3)o2)cc1 (stereo not drawn)	0	-32	29	-17	-0.3	6

Overlap with the part before: four compounds; new compounds follow.
SMILES	Six1-Eya2 inh	TRPV1 PAM	TRPML1 inh	CtBP-E1A inh	TRPML1 agonist	D2 PAM
COc1ccc([C@H]2CC(=O)C=C(c3cccc(Br)c3)C2)cc1OC	-20	.	2	-9	2.8	7
c1ccc(N2CCOCCOCCOCCOCCOCC2)cc1	7	-5	8	5	-0.7	-18
Cc1cc(Br)cn2c(Cc3cccc(F)c3)c(-c3ccc(Cl)cc3)nc12	3	.	3	11	-0.3	-5
CC1CCCCN1S(=O)(=O)c1ccc(C(=O)Nc2nnc(C3=COCCO3)o2)cc1 (stereo not drawn)	0	-32	29	-17	-0.3	6
O=S(=O)(c1ccccc1)[C@@]1(c2ccc(Br)cc2)C[C@@H]2ON=C(c3cccc(Br)c3)[C@@H]2C1	5	21	3	3	-0.6	-8
O=C(NC1CCCC1)C(=O)c1c[nH]c2ccccc12	0	8	0	4	-0.8	-5
Cc1cccc(Nc2nc(C)cc(C)c2C#N)c1	7	6	12	.	-1.3	2
CCOc1ccc(C(=S)N2CCCC2)cc1OCC	-4	-6	11	.	-0.9	1
CCN(CC)c1ccc(N2C(=O)C3CCCCC3C2=O)cc1[N+](=O)[O-] (stereo not drawn)	-13	-9	3	-15	1.4	-5
Cc1ccc(NC(=O)c2ccccc2OCc2c(C)noc2C)cc1S(=O)(=O)N(C)C	0	-15	46	1	2.4	-8
COc1ccccc1N1CCN(Cc2cccc(OC)c2OC)CC1	-5	1	-9	-1	-0.1	-45
Cc1cccc(-c2nc(CS(=O)CC(=O)N3CCN(C)CC3)c(C)o2)c1 (stereo not drawn)	-3	0	-9	2	-0.5	0
CCCCOC(=O)C1=C(C)Nc2ncnn2C1c1cccc(OC)c1OC (stereo not drawn)	-2	-5	-1	-4	0.4	-12
CCOC(=O)/C=C/C(=O)Nc1nccs1	2	-17	4	-1	0.5	-14
Cn1c(N)c(S(=O)(=O)NCc2ccc(Cl)cc2)c(=O)n(C)c1=O	5	2	21	2	-0.6	4
NS(=O)(=O)c1ccc(NC(=S)NCc2ccccc2)cc1	8	-14	10	-2	1.8	5
Cc1ccc(C(=O)Cc2ccccc2)c(O)c1	24	.	13	45	0.4	0
Cc1cccc(N2CCN(Cc3c(C)n(C)n(-c4ccccc4)c3=O)CC2)c1C	3	3	-27	2	-0.3	-19
Cn1ccnc1SCC(=O)n1c2c(c3ccccc31)CCCC2	?	-22	-2	-15	0.2	-4
Cc1cccc(NC(=O)NC(C)C(c2cccs2)N2CCOCC2)c1 (stereo not drawn)	2	-1	6	3	-0.2	-10
O=[N+]([O-])c1cc(S(=O)(=O)C(F)(F)F)ccc1Sc1nc2ccccc2s1	-2	2	1	2	0.9	3
CCc1c(C)nc2cc(-c3cccc(Br)c3)[nH]n2c1=O	-26	-2	-3	20	0.3	-1
CCCOC(=O)c1ccc(O)c(OC)c1	11	-6	1	-17	-0.4	-8
Cn1c(-c2ccccc2)cnc1NCc1ccc(-c2ccccc2)cc1	-21	7	-1	-11	0.0	-2
O=C(CCc1nnc(-c2ccccc2)o1)NCc1cc(F)ccc1F	8	-6	-13	3	0.9	-5
CCC1SC2=NCCN2C1(O)c1ccc(Cl)cc1 (stereo not drawn)	0	-1	9	-1	3.0	-12
COc1ccc(CCNc2ncnc3c2[nH]c2cc(OC)c(OC)cc23)cc1OC	?	0	7	-29	1.0	12
O=C(Cc1ccc(-n2c(=O)c3sccc3n(CC(=O)Nc3ccccc3)c2=O)cc1)NCc1ccco1	5	10	11	-7	1.1	1
COc1cc(C(=O)NCCCNC(=O)c2cc(OC)c(OC)c(OC)c2)cc(OC)c1OC	2	.	-17	-5	0.6	-6

Quoted at random: four entries already listed, in no set order.
SMILES	Six1-Eya2 inh	TRPV1 PAM	TRPML1 inh	CtBP-E1A inh	TRPML1 agonist	D2 PAM
Cn1c(N)c(S(=O)(=O)NCc2ccc(Cl)cc2)c(=O)n(C)c1=O	5	2	21	2	-0.6	4
COc1cc(C(=O)NCCCNC(=O)c2cc(OC)c(OC)c(OC)c2)cc(OC)c1OC	2	.	-17	-5	0.6	-6
COc1ccccc1N1CCN(Cc2cccc(OC)c2OC)CC1	-5	1	-9	-1	-0.1	-45
CCCCOC(=O)C1=C(C)Nc2ncnn2C1c1cccc(OC)c1OC (stereo not drawn)	-2	-5	-1	-4	0.4	-12

(next part)
SMILES	Six1-Eya2 inh	TRPV1 PAM	TRPML1 inh	CtBP-E1A inh	TRPML1 agonist	D2 PAM
c1ccc(CSc2nc3ncncc3[nH]2)cc1	4	3	.	-2	.	-8
COc1ccc(C2CC(=O)c3cnc(NC(=O)c4cc(OC)cc(OC)c4)nc3C2)cc1 (stereo not drawn)	-3	-4	6	-15	-0.9	1
CC(C)CCN1CCN(Cc2cc(F)ccc2-n2cccn2)CC1CCO (stereo not drawn)	-6	12	2	2	-0.6	-5
Cc1ccc(S(=O)(=O)N2CCOCC2)cc1NC(=O)COC(=O)c1ccc(Br)cc1	0	.	-10	1	-0.4	7
CC(=O)C1=C(O)C(=O)N(c2ccc(F)cc2)C1c1ccc(C)cc1 (stereo not drawn)	2	2	-5	3	-0.3	2
Cc1cc(-c2ccc(S(=O)(=O)N3CCN(c4ccccc4F)CC3)s2)on1	4	6	14	12	0.9	-4
COCCNC(=O)C1(C)CCCN(Cc2c(C)nn(-c3ccccc3)c2C)C1 (stereo not drawn)	11	.	.	8	-0.1	-5
Cc1nc2ccc3[nH]snc3c2n1	-4	2	-2	-2	-0.2	-3
CC(CCc1ccccc1)NC(=O)CCC(=O)N1CCC(C(=O)O)CC1 (stereo not drawn)	5	-12	30	.	0.4	-16
Cc1ccc(NC(=O)/C(=C/c2cccs2)NC(=O)c2ccco2)cc1	-3	16	22	-3	-0.1	-25
O=C(O)Cn1cc(CN2CCOCC2)c2ccccc21	-2	-12	.	.	.	-1
COc1ccc(-n2nnnc2CNC(=O)c2ccc3c(c2)OCO3)cc1	-5	-19	6	3	0.3	13
CCOc1ccc2nc(SCc3cccc(C)c3)nc(C)c2c1	5	-13	7	7	-0.3	-12
CC(=O)c1ccc(OCC(O)CN2CCN(Cc3ccc4c(c3)OCO4)CC2)cc1 (stereo not drawn)	12&3	-5&11	5&-2	0&-5	-0.2&0.2	-6&-11
O=C1N=C(N2CCOCC2)S/C1=C/c1cccs1	2	-6	4	-7	-0.2	-1
CCOC(=O)c1ccc(NC(=O)CC2C(=O)N(c3ccccc3)C(=O)N2CCCOC)cc1 (stereo not drawn)	0	-9	-11	-2	0.5	-8
CNC(=O)c1c(NC(=O)C2=COCCO2)sc2c1CCCC2	-7	-8	7	-2	-0.9	-4
COc1cccc(C2N(Cc3ccccc3)C(=O)C2(F)F)c1OC (stereo not drawn)	7	28	-22	10	1.4	2
O=S(=O)(c1cccc(NC(=S)N2CCN(c3ccccc3F)CC2)c1)C(F)F	26	-2	70	.	-0.8	-7
COc1ccc([C@@H]2CC(=O)[C@@H]3CN(S(=O)(=O)c4ccc(C)cc4)[C@H](c4cccc(Cl)c4)C[C@@H]3N2S(=O)(=O)c2ccccc2)cc1	-2	.	28	1	1.2	-5
COC(=O)c1cccc(N/C=C(\[N+](=O)[O-])S(=O)(=O)c2ccccc2)c1	4	-16	-9	4	-0.4	-7
Cc1ccc(Cn2c(NS(=O)(=O)c3ccccc3)nc3ccccc32)cc1	-7	-2	49	-7	2.3	-8
Cc1ccc2c(c1)CCCN2C(=O)CCc1nc2ccccc2c(=O)[nH]1	-7	-8	17	8	2.5	-9
CC(C)n1c(O)c(N=Nc2ccccn2)c2ccccc21	10	?	-1	-2	0.3	-25
Cc1cccc2sc(NNC(=O)c3ccc(S(=O)(=O)N4CCCC(C)C4)cc3)nc12 (stereo not drawn)	0	-1	6	-7	0.3	12
O=C(NCCCN1CCCC1)c1ccc(CS(=O)(=O)c2ccc(Cl)cc2)o1	5	-14	57	.	1.6	-17
COC(=O)Cc1n[nH]c(=S)[nH]c1=O	-11	9	30	-19	0.4	-4
COc1cccc(CNC(=O)c2nnn(CC(=O)Nc3ccc(C)c(C)c3)c2N)c1	0	-2	13	1	-0.9	-8
O=C(CCn1nnc2ccccc21)Nc1nnc(-c2ccccc2F)s1	-1	-5	-16	10	-0.4	1
